Screening results from PubChem.
KCNQ2 pot = potentiators of rat KCNQ2 potassium channel; CHO-K1 KCNQ2, FluxOR thallium flux fluorescence; stronger effect = higher value; 310,000 tested, 0.54% active; AID 2239; B-score at 10 µM; O88943;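 active means fluorescence ratio B-score at least 3 SD of library B-scores, with initial fluorescence B-score within 3 SD, cut at about 5.3 in these data; same plate scores as AID 2156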;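 further: B-score of peak minus minimum over baseline fluorescence ratio after K+ and Tl+ stimulus; positive B-score means potentiation of KCNQ2 with more thallium influx and brighter signal; only the inactives scoring about 0 or higher are listed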
Target sequence (O88943 whole entry, looked up): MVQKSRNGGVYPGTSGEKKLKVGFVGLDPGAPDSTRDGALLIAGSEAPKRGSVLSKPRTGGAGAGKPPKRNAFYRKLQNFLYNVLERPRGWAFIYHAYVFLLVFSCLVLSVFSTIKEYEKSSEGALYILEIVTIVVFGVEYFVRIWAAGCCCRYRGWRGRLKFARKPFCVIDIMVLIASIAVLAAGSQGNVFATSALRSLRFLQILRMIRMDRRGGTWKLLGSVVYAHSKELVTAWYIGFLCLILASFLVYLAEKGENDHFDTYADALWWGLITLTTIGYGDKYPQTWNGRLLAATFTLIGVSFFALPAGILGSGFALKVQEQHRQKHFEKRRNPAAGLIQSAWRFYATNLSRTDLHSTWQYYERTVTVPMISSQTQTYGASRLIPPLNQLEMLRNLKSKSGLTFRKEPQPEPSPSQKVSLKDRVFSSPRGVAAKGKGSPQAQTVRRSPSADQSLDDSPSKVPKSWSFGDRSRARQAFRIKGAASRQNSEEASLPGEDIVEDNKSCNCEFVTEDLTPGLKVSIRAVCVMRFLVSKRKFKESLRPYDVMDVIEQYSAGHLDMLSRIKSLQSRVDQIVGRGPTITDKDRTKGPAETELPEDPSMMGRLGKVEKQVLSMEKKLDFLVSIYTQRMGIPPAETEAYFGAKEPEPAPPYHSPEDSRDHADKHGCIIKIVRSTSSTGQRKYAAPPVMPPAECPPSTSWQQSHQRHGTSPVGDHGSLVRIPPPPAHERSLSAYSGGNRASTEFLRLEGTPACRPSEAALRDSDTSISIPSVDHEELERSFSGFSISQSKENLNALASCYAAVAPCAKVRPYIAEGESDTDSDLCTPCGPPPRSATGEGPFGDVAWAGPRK
KCNQ2 pot baseline = recorded beside KCNQ2 pot, whose call it bears; B-score; compound at 10 µM; measured here: initial fluorescence intensity artifact check;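 brightness before thallium and not channel activity; 0 = typical well and far values either way flag optical interference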
Active calls of the source: *. An excerpt, so the mix of outcomes need not match the whole.

SMILES	KCNQ2 pot	KCNQ2 pot baseline
O=C(/C=C/c1ccc(Br)o1)NCCCN1CCOCC1	1.31	-1.25
CC(CCc1ccccc1)NS(=O)(=O)c1ccccc1 (centres undefined)	0.03	-1.08
Clc1ccc(NCc2cccnc2)cc1	0.58	0.05
O=C(Cc1ccccc1)Nc1ccc(SC(F)F)cc1	0.72	-0.04
Cc1ccc(CNC(=O)c2ccc3c(c2)S(=O)(=O)c2ccccc2C3=O)o1	2.47	1.75
Cc1ccc(NC(=S)NCCO)c(C)c1	0.48	-0.68
COCCNc1nc(N)c([N+](=O)[O-])c(Nc2ccc(F)cc2)n1	0.2	1.01
Cc1[nH]n(C(C)(C)C)c(=O)c1Sc1ccccc1	0.43	-1.03
O=S(=O)(O)c1ccc(SCc2ccccc2)nc1	0.87	0.36
Cn1cccc1CNCc1ccccc1Cl	0.57	-0.08
CCOc1ccccc1/C=C(\C#N)C1=CCCC1	1.22	-0.05
Cn1[nH]c(=O)c(Cl)c(Cl)c1=O	1.87	-0.01
Cc1n[nH]c(C)c1S(=O)(=O)N1CCCC(C(=O)Nc2nccs2)C1 (centres undefined)	1.54	0.05
Cc1oc(-c2ccc(Cl)cc2)nc1CN1CCCC(C(=O)NC2CC2)C1 (centres undefined)	1.94	-1.87
CCOc1cc(/C=N/NC(=O)COc2cccc(C)c2)ccc1OC(=O)c1cccs1	0.67	-0.59
COc1cc(OC)c2ccc(=O)oc2c1C(CC(=O)N1CCCC1)c1ccc2c(c1)OCO2 (centres undefined)	1.13	-1.63
CC(C)N1C(=O)S/C(=C/c2cccnc2)C1=O	0.54	-0.22
COc1cccc(CC(=O)Nc2nc(-c3ccc(F)c(F)c3)cs2)c1	0.55	1.67
CC1C(=O)N(Cc2cccc(F)c2)c2ccccc2N1C(=O)c1ccccc1 (centres undefined)	1.11	-0.88
O=C(CC(=O)NC1CCCCC1)N/N=C/c1ccccc1Cl	0.55	2.25
CCOC(=O)c1ccc(NC(=O)c2nc[nH]c2C(=O)N2CCC(C)CC2)cc1	0.26	0.2
Cc1ccc(N2CCN(CC(O)COC3CCCCC3)CC2)cc1 (centres undefined)	0.83	0.01
Cc1ccc(C(=O)/C=C/Nc2cccc(O)c2)cc1	0.6	1.96
O=C(c1ccc2c3n(nc2c1)-c1ccccc1CO3)N1CCCCC1	0.78	0.47
CCN(CC)CCNC(=O)c1ccc(NC(=O)/C=C/c2ccc3ccccc3n2)cc1	0.74	-1.14
CCC(=O)Nc1ccc(C(=O)NNC(=O)c2ccc(C)cc2)cc1	0.01	-0.66
CC(=O)NCCc1nc2ccccc2n1Cc1ccccc1	0.39	0.9
O=C(COc1ccccc1Cl)Nc1cc(NC(=O)COc2ccccc2Cl)cc(C(=O)O)c1	0.37	1.12
CCc1nccn1-c1cc(C(C)(C)C)nc2c(-c3ccc(Cl)cc3)cnn12	1.6	1.55
CCOc1ccccc1OCC(=O)N/N=C(\C)Cc1ccc(OC)cc1	0.09	0.04
c1ccc2c(c1)nc1n2CN(Cc2ccc3c(c2)OCO3)CN1	0.68	1.75
CC(C)CCNC(=O)CN(CC1CCCO1)C(=O)CCC(=O)Nc1ccccn1 (centres undefined)	1.94	-0.78
COc1ccc(Nc2nnc(C)c(=O)[nH]2)cc1	0.07	0.5
O=C(CCNC(=O)Cn1cnc2ccccc2c1=O)NCC1CCCO1 (centres undefined)	1.1	1.25
CCCCCCOc1ccc(C(=O)n2cnc(N)n2)cc1	1.77	0.27
COCCN1C(=NCCCOC(C)C)N[C@@H](c2ccccc2)C(C(=O)OC)=C1C	0.24	2.64
O=C(Nc1nc(-c2ccccn2)cs1)c1ccc2c(c1)OCCO2	2.34	-1.06
O=C(COc1ccccc1)NC(=S)N1CCc2ccccc21	10.1*	-0.79*
CNC(=O)CN1C(=O)CSc2ncccc21	0.67	-0.59
Cc1cc(C)cc(NS(=O)(=O)c2ccc3c(c2)c(=O)n(C)c(=O)n3C)c1	0.21	0.02
Cc1ccc(CNC(=O)Cc2csc(Nc3nc(=S)[nH]c4ccccc34)n2)cc1	0.78	-0.72
O=C(NNC(=O)c1ccccc1OCc1ccccc1Cl)c1csc(N2CCOCC2)n1	0.14	0.09
CC(C)CN1C(=O)C(=O)N(CC(=O)c2ccc[nH]2)C1=O	1.66	-0.68
Cc1nc(-c2c(C(F)(F)F)noc2-c2ccc(O)cc2O)cs1	1.83	-2.32
Cc1ccc(OCCN2CCCCCC2)c(C)c1	0.5	0.02
NC(=O)C1CCN(CC(=O)N2c3ccccc3CCc3ccccc32)CC1	0.57	-0.36
CCOC(=O)c1c(C=O)c(C)n(Cc2ccc(Cl)cc2)c1C	0.64	-1.69
O=C(NCC(=O)N(c1cccnc1)C(C(=O)NC1CCCC1)c1ccccc1F)c1ccco1 (centres undefined)	1.29	-1.51
Cc1ccc2c(CN3CCCCC3C)cc(=O)oc2c1C (centres undefined)	24*	-1.56*
COC(CSc1nc(N)c2c3c(sc2n1)CN(C)CC3)OC	1.14	0.01
COc1ccc(/C=C2\SC(=O)N(CCC(=O)N3CCCCC3CCO)C2=O)cc1 (centres undefined)	0.02	-0.01
CCCc1[nH]nc2c1C(c1ccc(OC(=O)N3CCOCC3)c(OC)c1)C(C#N)=C(N)O2 (centres undefined)	0.16	-0.34
CCc1cc2c3c(c1)C(C)CC(C)(C)N3C(=O)C2=O (centres undefined)	2.4	-0.01
O=C(Nc1ccc(Cl)cc1)c1ccc2c(c1)OCO2	1.35	0.07
CC(=O)c1cn(C2OC(CO)C3OC(C)(C)OC32)c(=O)n(C)c1=O (centres undefined)	0.26	0.65
C/C(=N/NS(=O)(=O)c1ccc(C)cc1)c1cccc(NC(=O)c2cccc(Cl)c2)c1	1.83	0.47
COc1ccccc1OCC(=O)Nn1c(=S)[nH]c2ncccc2c1=O	0.36	0.4
O=C(COC(=O)C12CC3CC(CC(O)(C3)C1)C2)N1CCN(S(=O)(=O)c2ccc(Cl)cc2)CC1	0.35	-1.12
COc1ccc(CN2CCN(c3ccccc3OC)CC2)cc1OC	0.59	-0.9
CCn1c(COc2cccc(C)c2)nnc1SCC(=O)NC1CCCC1	0.01	-3.02
Further structures
SMILES	KCNQ2 pot	KCNQ2 pot baseline
O=S(=O)(c1ccc(Cl)c(NC(=S)Nc2ccccc2N2CCOCC2)c1)N1CCOCC1	0.82	-0.33
CSc1ncccc1C(=O)Nc1ncc(C)s1	1.63	-0.96
O=C(N/N=C/c1cccc(O)c1)c1ccc(COc2ccc3c(c2)CCC3)o1	0.41	0.22
N#Cc1cc2c(=O)n3ccccc3nc2n(CCCN2CCOCC2)c1=O	0.77	-0.04
CC1=NN=C(c2ccccc2)C(c2c[nH]c3ccccc23)N1O (centres undefined)	0.1	1.33
COC(=O)C1CCN(C(=O)CN2C(=O)NC(CCc3ccccc3)C2=O)CC1 (centres undefined)	0.98	0.25
Cc1c(C(=O)N2CC[C@@H](N3CCC(O)CC3)[C@H](O)C2)[nH]c2ccc(Cl)cc12	0.03	-0.72
COc1ccc(S(=O)(=O)N2CCOC2CNC(=O)C(=O)NCCc2ccc(OC)c(OC)c2)cc1 (centres undefined)	0.67	-1.68
Cc1c(Cc2ccccc2)sc(NC(=O)C(C)(C)C)c1C(N)=O	0.29	-0.63
O=c1oc2ccccc2cc1C1=Nn2c(nnc2-c2cccnc2)SC1	0.93	-0.66
Cc1ccc(C(C)NC(=O)c2ccncc2)c(C)c1 (centres undefined)	0.33	-2.09
O=C(NCCO)/C(=C\c1ccco1)NC(=O)c1cccs1	1.23	-0.32
CCCC(=O)Nc1ccc(N2CCCCC2)cc1	1.18	1.24
Cn1c(=O)c2c(ncn2CC(=O)N/N=C/C=C\c2ccccc2[N+](=O)[O-])n(C)c1=O	1.02	-0.74
O=C(CSc1n[nH]c(=O)[nH]c1=O)N/N=C/c1ccccc1	1.47	-0.14
CCCCCCCC(=O)Nc1cc(C(=O)NCc2ccc(C)cc2)ccc1N1CCC2(CC1)CC(c1cccc(Br)c1)=NO2	0.06	-1.27
COc1ccc(CN(C(=O)c2ccccc2OC)C2CCS(=O)(=O)C2)cc1 (centres undefined)	0.71	-0.36
O=C(O)CN(Cc1ccccc1)S(=O)(=O)c1ccc2c(c1)OCCO2	0.37	2.81
FC(F)Oc1ccc(/C=N/NC(=S)Nc2cc(C(F)(F)F)ccc2Cl)cc1	0.75	0.23
O=C(NC1CC2CCCC(C1)N2S(=O)(=O)c1ccccc1)c1ccccc1 (centres undefined)	0.89	1.02
O=C(CSc1nnc(-c2ccncc2)o1)NCc1ccccc1	0.5	1.08
CCn1c(COc2cccc3cccnc23)nnc1SCC(=O)OC	0.43	0.04
CCOC(=O)c1ccc2c(c1)nc(-c1ccc(F)cc1)c1nccn12	0.68	-0.03
CCn1c(SCC(=O)Nc2ccccc2OC)nc(O)cc1=O	0.01	1.62
C/C(=N\NC(=O)CN1CCN(c2ccc(F)cc2)CC1)c1ccco1	1.2	-0.38
Cc1onc(-c2ccccc2)c1C(=O)Nc1ccc2c(c1)OCCO2	0.04	0
CCOc1cccc(/C=C2/NC(=O)N(CC(=O)Nc3cccc(C)c3)C2=O)c1O	2.02	-0.48
CCOc1ccccc1N1CCN(Cc2c(C)n(C)n(-c3ccccc3)c2=O)CC1	0.6	0.76
CCCC(C)n1[nH]c(=O)cc1N (centres undefined)	2.19	0.25
CC(=O)c1cccc(OCC(=O)N(C)CC(=O)Nc2ccc(F)cc2)c1	0.1	0.5
N#Cc1c[nH]n2c(=O)c3c(nc12)CCCC3	0.06	-0.01
Cc1ccc(C)c(Nc2cc(C)nc3ncnn23)c1	2.17	-1.15
Cc1cc(NC(=O)CSc2nccn2-c2ccc(Cl)cc2)no1	0.04	0.44
Cc1ccccc1C(O)c1cccnc1 (centres undefined)	1.81	-0.49
C/[N+]([O-])=C/c1c(OCc2ccc(Cl)cc2Cl)ccc2ccccc12	0.7	0.56
Cc1ccc(S(=O)(=O)NCC(=O)N(CC(=O)NCC2CCCO2)Cc2ccccc2)cc1 (centres undefined)	0.34	-0.39
Cc1ccc(CN2CC(C(=O)Nc3ncccc3C)CC2=O)cc1 (centres undefined)	0.26	0.72
CCOc1ccc(NC(=O)CN(C)C(=O)CN2C(=O)C3CC=CCC3C2=O)cc1OCC (centres undefined)	0.98	-0.27
O=C(O)CCC(=O)Nc1nc2nccc(-c3ccccc3)n2n1	0.02	0.26
CCOC(=O)C(=O)NCC(c1cccs1)S(=O)(=O)c1ccc(C)cc1 (centres undefined)	3.31	-0.77

Shown with values under each structure: part of the list above
Results follow in this order: KCNQ2 pot, KCNQ2 pot baseline
- O=C(/C=C/c1ccc(Br)o1)NCCCN1CCOCC1
→ 1.31, -1.25
- CC(CCc1ccccc1)NS(=O)(=O)c1ccccc1 (centres undefined)
→ 0.03, -1.08
- Clc1ccc(NCc2cccnc2)cc1
→ 0.58, 0.05
- O=C(Cc1ccccc1)Nc1ccc(SC(F)F)cc1
→ 0.72, -0.04
- Cc1ccc(CNC(=O)c2ccc3c(c2)S(=O)(=O)c2ccccc2C3=O)o1
→ 2.47, 1.75
- Cc1ccc(NC(=S)NCCO)c(C)c1
→ 0.48, -0.68
- COCCNc1nc(N)c([N+](=O)[O-])c(Nc2ccc(F)cc2)n1
→ 0.2, 1.01
- Cc1[nH]n(C(C)(C)C)c(=O)c1Sc1ccccc1
→ 0.43, -1.03
- O=S(=O)(O)c1ccc(SCc2ccccc2)nc1
→ 0.87, 0.36
- Cn1cccc1CNCc1ccccc1Cl
→ 0.57, -0.08
- CCOc1ccccc1/C=C(\C#N)C1=CCCC1
→ 1.22, -0.05
- Cn1[nH]c(=O)c(Cl)c(Cl)c1=O
→ 1.87, -0.01
- Cc1n[nH]c(C)c1S(=O)(=O)N1CCCC(C(=O)Nc2nccs2)C1 (centres undefined)
→ 1.54, 0.05
- Cc1oc(-c2ccc(Cl)cc2)nc1CN1CCCC(C(=O)NC2CC2)C1 (centres undefined)
→ 1.94, -1.87
- CCOc1cc(/C=N/NC(=O)COc2cccc(C)c2)ccc1OC(=O)c1cccs1
→ 0.67, -0.59
- COc1cc(OC)c2ccc(=O)oc2c1C(CC(=O)N1CCCC1)c1ccc2c(c1)OCO2 (centres undefined)
→ 1.13, -1.63

(next part)
SMILES	KCNQ2 pot	KCNQ2 pot baseline
N#Cc1c(SCC(=O)Nc2nccs2)sc2c(O)cc(=O)[nH]c12	1.59	0.5
O=C1c2ccccc2C(=O)N1OCc1ccccc1[N+](=O)[O-]	0.58	-2.66
COCCN(C(=O)COC(=O)c1c(-c2ccccc2)noc1C)c1c(N)n(Cc2ccccc2)c(=O)[nH]c1=O	1.62	0.47
COc1ccc(NC(=O)c2nn(C)c(C(=O)Nc3ccc(OC)cc3)c2[N+](=O)[O-])cc1	0.52	0.21
COc1ccc(S(=O)(=O)N2CCCCC2)cc1NC(=O)c1cc([N+](=O)[O-])ccc1N1CCOCC1	1.04	2.08
COC(=O)c1cccc(S(=O)(=O)N2CCCCC2)c1	0.55	1.51
Cc1cccc(C)c1NC(=S)N1CCC(N(C)CC2CCCO2)CC1 (centres undefined)	2.17	1.07
Cc1ccccc1NC(=O)c1cccc2nccnc12	0.79	0.26
CC(C)CCNC(=O)C(Cc1ccccc1)NS(=O)(=O)c1ccc2c(c1)c(=O)n(C)c(=O)n2C (centres undefined)	0.17	-0.02
COc1ccccc1NC(=O)NC1(C(=O)N2CCC(O)CC2)CCCCC1	0.72	1.06
Cc1ccc(SCc2nc(N)nc(Nc3ccccc3C)n2)c(C)c1	2.72	0.14
COc1ccc(C2(c3ccc(OC)cc3)NC(=O)NC2=O)cc1	1.25	1.39
CCOC(=O)C(C(=O)Nc1ccccc1)C1CCCCC1 (centres undefined)	0.81	-0.17
O=C(NC1CC1)c1ccc(-c2nc3ccccc3s2)s1	0.52	-0.08
CSc1ccc(-c2c(C#N)c(N)nc3c2c(C)nn3-c2ccccc2)cc1	0.3	-0.02
COC(=O)c1ccc2nc(-c3ccc(S(C)(=O)=O)cc3)cn2c1	0.65	-1.59
COC(=O)CCC(=O)Nc1ccc(OC)cc1	0.51	0.61
